# From PubChem BioAssay
# INS promoter inh: TRM-6 insulin promoter activity inhibition. TRM-6 cells (human fetal islet line), insulin promoter-eGFP reporter, imaging; reporter expression induced with tamoxifen. inhibition, % at 2 µM. hit rate 0.9% among 130,000. AID 1273;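 active means inhibition above the mean plus 3 SD, with well images judged a real hit on visual review, cut at about 60% in these data, passing the limit was not always enough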
# HSV augment: increases HSV replication in cells. HSV replication augmentation in cells, fold increase. maximum fold increase. hit rate 0.005% among 220,000. AID 1956;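 active means peak rise of 1.5-fold or more in the series; tested in PC3 cells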;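 further: first round at 10 µM; read as green reporter fluorescence; hits show the peak of a series up to 25 µM; 1 = signal of infected wells without compound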
# GALR2 ag: agonists of human galanin receptor 2 (GALR2); O43603; GALR2-expressing cells, agonist activation read-out; activation, %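 (tested at 5 µM)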; hit rate 0.48% among 140,000;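 active means above mean plus 3 SD of all compounds, about 5% in these data, not always enough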;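 further: 0% = vehicle buffer wells and 100% = reference agonist at full effect; tested in CHO reporter cells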
# RGS16-Gao HTS: RGS16-Galphao interaction regulator (human); bead-based flow cytometry RGS16-Galphao binding, fluorescence; actives lie on both sides; hit rate 0.38% among 220,000; AID 1441; binding response (% of control), % at 10 µM;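 active means below 25% or above 175%, edge rows of some plates excepted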;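 further: Galphao activated by GDP with aluminum fluoride before binding; 100% = wells without compound and 0% = beads without RGS; some results beyond the cut were filed as inactive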
# PKD1 inh: inhibitors of human PKD1 kinase; Q15139; PKD1 kinase fluorescence polarization assay; inhibition, %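 (about 10 µM by stock and volumes)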; hit rate 0.056% among 200,000;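 active means inhibition of 50% or more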;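 further: controls were vehicle for no effect and a reference inhibitor for full effect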
# Target sequence (Q15139 whole entry, looked up): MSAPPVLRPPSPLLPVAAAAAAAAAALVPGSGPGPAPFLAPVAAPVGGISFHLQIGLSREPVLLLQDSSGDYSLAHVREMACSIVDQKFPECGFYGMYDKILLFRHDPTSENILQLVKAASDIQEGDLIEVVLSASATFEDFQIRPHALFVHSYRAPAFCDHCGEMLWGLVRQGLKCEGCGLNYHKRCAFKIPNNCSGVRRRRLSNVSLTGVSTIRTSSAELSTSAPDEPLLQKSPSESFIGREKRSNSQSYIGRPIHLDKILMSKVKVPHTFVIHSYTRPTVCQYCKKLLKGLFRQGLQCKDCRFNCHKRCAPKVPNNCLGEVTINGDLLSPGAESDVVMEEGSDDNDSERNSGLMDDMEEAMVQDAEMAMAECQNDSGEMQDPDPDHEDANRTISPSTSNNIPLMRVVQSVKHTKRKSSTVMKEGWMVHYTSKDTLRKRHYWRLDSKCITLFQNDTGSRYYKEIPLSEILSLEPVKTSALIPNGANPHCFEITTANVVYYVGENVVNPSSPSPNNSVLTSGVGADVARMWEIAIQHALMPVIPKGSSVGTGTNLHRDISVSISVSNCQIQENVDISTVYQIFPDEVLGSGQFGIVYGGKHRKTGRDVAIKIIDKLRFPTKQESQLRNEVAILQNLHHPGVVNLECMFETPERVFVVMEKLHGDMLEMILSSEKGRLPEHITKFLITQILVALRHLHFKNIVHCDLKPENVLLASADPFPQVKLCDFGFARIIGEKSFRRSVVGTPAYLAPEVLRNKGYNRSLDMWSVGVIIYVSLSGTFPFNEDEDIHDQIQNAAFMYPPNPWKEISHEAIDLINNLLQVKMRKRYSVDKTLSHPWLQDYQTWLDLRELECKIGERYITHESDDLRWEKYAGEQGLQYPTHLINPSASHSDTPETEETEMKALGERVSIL
# INS promoter inh cell count: recorded beside INS promoter inh, whose call it bears; normalized cell count, %; measured here: cell count, toxicity; reference of the scale not given here;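 cells exposed to compound for 48 h; stained nuclei by imaging scaled within each plate; lower means fewer cells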
# HSV augment primary fold: further read-out of HSV augment, marked with its call; fold increase; compound at 10 µM; measured here: primary screen fold increase 10 uM; tested in PC3 cells;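 GFP signal in the first replicate; 1 = infected wells without compound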
# Starred values were filed as active, the others as inactive; i = inactive; · = no result given.
SMILES,INS promoter inh,INS promoter inh cell count,HSV augment,HSV augment primary fold,GALR2 ag,RGS16-Gao HTS,PKD1 inh
Cc1ccc(N2CCN(S(=O)(=O)N(C)C)CC2)c(C)c1,20,93,i,0.87,-1.1,·,-3
Cc1ccccc1NC(=O)CN1CCC(NC(=O)Nc2ccccc2)CC1,-22,126,i,1,0.0,105,-8
N#Cc1ccsc1NC(=O)CN(Cc1ccccc1)Cc1ccccc1,12,87,i,1,-0.6,132,-5
O=C(Nc1cccnc1)c1ccc(COc2ccccc2Br)o1,·,·,i,0.69,-0.7,99,-2
CCN(CC)C(=O)CSc1nnc(-c2ccccn2)n1-c1ccc(C)c(C)c1,·,·,i,0.85,-1.2,88,-10
O=C1COc2ccc(C(=O)COC(=O)C3CCN(S(=O)(=O)c4cccs4)CC3)cc2N1,·,·,i,1.1,0.0,108,-6
Cc1cc(C)cc(NC(=S)N2CCC(NC(=O)c3ccccc3C)CC2)c1,-33,112,i,0.89,·,108,2
O=c1[nH]c(Cc2ccccc2)nc2ccccc12,·,·,i,0.97,·,102,-2
CC1=C(c2ccc(Cl)cc2)[N+](=O)C(C)(C)N1[O-],-14,89,i,0.94,-2.0,98,3
Clc1ccc(OCc2nn3c(-c4ccncc4)nnc3s2)cc1,·,·,i,0.89,-1.8,96,-4
NNC(=O)CNC(=O)c1ccccc1F,-34,134,i,1.1,-1.4,79,2
COC(=O)c1ccc(CSc2nnc(-c3c[nH]c4ccccc34)n2C)o1,·,·,i,1,-2.6,113,-11
c1ccc(-c2cc(N3CCCCC3)c3ccccc3n2)cc1,·,·,i,1.1,·,103,2
CN(CC(=O)Nc1nc2ccccc2s1)S(=O)(=O)c1ccccc1,-8,104,i,0.94,-0.2,105,0
O=C(COC(=O)c1ccc2c(c1)C(=O)N(c1cccc3ncccc13)C2=O)c1ccc(Cl)cc1,-16,124,i,0.93,-0.3,103,-2
O=c1c2[nH]c3ccccc3c2ncn1Cc1ccco1,32,179,i,0.95,0.4,99,-5
COc1ccccc1OCC(=O)Nc1cccc(-c2nc3ccccc3o2)c1,-8,96,i,0.85,-1.6,92,-2
CCC1=C/C(=C/N(C)c2ccccc2)C(=O)S1,·,·,i,1.1,-1.4,97,-5
CCOC(=O)c1nn(-c2sc(C(=O)OC)c(C)c2C(=O)OC)cc1O,52,113,i,0.89,-1.0,109,-1
O=C(Cc1cccs1)N(c1ccc(Cl)cc1)C1C=CS(=O)(=O)C1 (configuration not stated),-50,112,i,0.92,0.0,103,-5

# Reprinted from the listing (16 entries):
SMILES,INS promoter inh,INS promoter inh cell count,HSV augment,HSV augment primary fold,GALR2 ag,RGS16-Gao HTS,PKD1 inh
Cc1ccc(N2CCN(S(=O)(=O)N(C)C)CC2)c(C)c1,20,93,i,0.87,-1.1,·,-3
Cc1ccccc1NC(=O)CN1CCC(NC(=O)Nc2ccccc2)CC1,-22,126,i,1,0.0,105,-8
N#Cc1ccsc1NC(=O)CN(Cc1ccccc1)Cc1ccccc1,12,87,i,1,-0.6,132,-5
O=C(Nc1cccnc1)c1ccc(COc2ccccc2Br)o1,·,·,i,0.69,-0.7,99,-2
CCN(CC)C(=O)CSc1nnc(-c2ccccn2)n1-c1ccc(C)c(C)c1,·,·,i,0.85,-1.2,88,-10
O=C1COc2ccc(C(=O)COC(=O)C3CCN(S(=O)(=O)c4cccs4)CC3)cc2N1,·,·,i,1.1,0.0,108,-6
Cc1cc(C)cc(NC(=S)N2CCC(NC(=O)c3ccccc3C)CC2)c1,-33,112,i,0.89,·,108,2
O=c1[nH]c(Cc2ccccc2)nc2ccccc12,·,·,i,0.97,·,102,-2
CC1=C(c2ccc(Cl)cc2)[N+](=O)C(C)(C)N1[O-],-14,89,i,0.94,-2.0,98,3
Clc1ccc(OCc2nn3c(-c4ccncc4)nnc3s2)cc1,·,·,i,0.89,-1.8,96,-4
NNC(=O)CNC(=O)c1ccccc1F,-34,134,i,1.1,-1.4,79,2
COC(=O)c1ccc(CSc2nnc(-c3c[nH]c4ccccc34)n2C)o1,·,·,i,1,-2.6,113,-11
c1ccc(-c2cc(N3CCCCC3)c3ccccc3n2)cc1,·,·,i,1.1,·,103,2
CN(CC(=O)Nc1nc2ccccc2s1)S(=O)(=O)c1ccccc1,-8,104,i,0.94,-0.2,105,0
O=C(COC(=O)c1ccc2c(c1)C(=O)N(c1cccc3ncccc13)C2=O)c1ccc(Cl)cc1,-16,124,i,0.93,-0.3,103,-2
O=c1c2[nH]c3ccccc3c2ncn1Cc1ccco1,32,179,i,0.95,0.4,99,-5

# The list goes on.
SMILES,INS promoter inh,INS promoter inh cell count,HSV augment,HSV augment primary fold,GALR2 ag,RGS16-Gao HTS,PKD1 inh
O=C(COC(=O)CNS(=O)(=O)c1c(Cl)cccc1Cl)Nc1ccccc1Sc1ccccc1,14,119,i,0.93,-1.0,106,10
COC(=O)Nc1ccc(S(=O)(=O)Nc2ccc(C(=O)O)cc2)cc1,·,·,i,0.74,·,107,-7
Cc1ccc(-c2nc3ncccc3o2)cc1NC(=O)c1ccco1,31,85,i,0.98,-0.2,·,-10
CCOC(=O)C1=C(CN2CCCCC2)NC(=O)NC1c1cc(C)ccc1C (configuration not stated),23,102,i,0.95,0.0,84,7
COC(=O)[C@@]1(Cc2ccc(OC)cc2)[C@H]2c3cc(C(=O)N(C)C)n(CCc4ccc(OC)c(Br)c4)c3C[C@H]2CN1C(=O)c1ccccc1,5,131,·,·,0.1,106,-13
O=C1CCN(N=Nc2cccc(Cl)c2)N1,-29,138,i,1,-1.5,98,0
O=C(/C=C/c1ccc(Cl)cc1Cl)NCc1ccncc1,26,119,i,1.2,-2.6,98,8
CCOC(=O)c1nnn(-c2nonc2-n2cccc2)c1CN1CCOCC1,·,·,i,0.72,-0.2,102,-4
Cc1ccc(NC(=O)c2cc(=O)c3ccccc3o2)cc1S(=O)(=O)N1CCCCC1,-7,112,i,0.77,·,95,-4
CN(C)S(=O)(=O)c1cccc(NC(=S)NCCc2ccccn2)c1,·,·,i,0.99,·,102,-4
Cc1cc(N=Cc2c(O)n(-c3ccc4c(c3)OCO4)c(=O)c3ccccc23)ccn1,·,·,i,0.71,1.1,100,-11
O=C(Nc1cccc(-c2cnc3ccccc3n2)c1)c1ccncc1,·,·,i,0.85,·,97,5
CC(C)(C)NC(=O)COC(=O)c1ccc(Cl)cc1O,-14,140,i,0.95,·,98,-6
CCN1CCCc2cc(CN(CCN3CCOCC3)C(=S)Nc3ccc(OC)c(OC)c3)ccc21,-425,73,i,0.96,·,97,1
CCOc1c(Br)cc(CNc2ncn[nH]2)cc1OC,-27,202,i,0.94,-0.5,104,-12
O=C1NC(c2ccccc2)=CC(c2ccccc2)N1 (configuration not stated),·,·,i,0.94,·,101,2
CCOC(=O)CSc1nc2sc(C)c(C)c2c(=O)n1C,-50,145,i,0.91,-2.4,103,-1
COc1cc(C2N(c3ccccc3)CCN2c2ccccc2)ccc1OC(C)=O,·,·,i,1.1,-2.8,114,-3
CCN(Cc1cc(=O)n2ccsc2n1)c1cccc2ccccc12,·,·,i,0.81,-1.1,101,-11
Cc1ccc(NC(=O)C2(N(CC(C)C)C(=O)Cn3nnnc3N)CCCCC2)cc1,·,·,i,0.74,-0.2,100,-3
CCc1ccc(-n2c(SCC(=O)Nc3cccc(S(=O)(=O)NC4=NCCCCC4)c3)nc3ccccc3c2=O)cc1,30,86,i,0.92,-1.7,27,-5
Nc1cccc(S(=O)(=O)c2cccc(N)c2)c1,3,109,·,·,-1.2,101,-13
O=C(O)c1cccc(Oc2ncnc3sc4c(c23)CCCC4)c1,·,·,i,0.96,·,101,1
CCOc1cccc(OCCCOc2ccccc2)c1,14,91,i,0.93,-2.5,102,-7
CCn1c(O)c(C=Nc2ccccc2)oc1=S,·,·,i,0.92,-1.3,112,0
CCN1CCN(c2cc(C)c3cc(NC(=S)N4CCN(c5ccccc5)CC4)ccc3n2)CC1,-53,130,i,0.74,·,97,-2
COc1ccc(/C=N/c2oc(C)c(C)c2C#N)c(OC)c1,·,·,i,1,·,101,1
CCOC(=O)C1=C(C)N(CC(C)C)C(=O)C1,·,·,i,0.97,·,98,-7
Cc1ccc(S(=O)(=O)N(C)C)cc1N,·,·,i,0.85,·,102,-4
CC(C)(C)OC(=O)N1CC=C2C(C#N)=C(N)C(C#N)(C#N)C(c3cccs3)C2C1 (configuration not stated),·,·,i,0.84,-1.4,92,-6
COC(=O)CC1C(=O)NCCN1C(=S)NC(=O)c1ccccc1[N+](=O)[O-] (configuration not stated),·,·,i,0.96,-0.2,100,6
COC(=O)c1cn(NC(=O)CCC2CCCC2)c(=O)c2ccccc12,25,88,i,0.95,-0.7,100,3
CC1(C)Cc2nc3oc4c(=O)n(CC(=O)Nc5ccccc5)cnc4c3cc2CO1,-34,97,i,1,-0.1,102,4
COc1ccc(CCNC(=O)Cn2cc(C(F)(F)F)cc(Cl)c2=O)cc1OC,28,69,i,0.93,-0.6,106,-4
COc1cc(C(=O)NCc2nnc(SCC(=O)Nc3cccc(C)c3)o2)cc(OC)c1OC,65,73,i,0.99,-1.6,104,-1
C[C@@H](c1ncncc1F)[C@](O)(Cn1cncn1)c1ccc(F)cc1F,·,·,i,0.65,·,106,·
O=C(NN1C(=O)c2ccccc2NC1c1ccco1)c1ccc([N+](=O)[O-])cc1 (configuration not stated),-25,122,i,0.96,·,100,7
CC(C)N(C(=O)COC(=O)c1cncc(Br)c1)C(C)C,·,·,i,0.96,·,107,4
c1ccc(C2[C@H]3CN(Cc4cccnc4)[C@H](c4ccccc4)C34CC2(c2cccnc2)C4)cc1 (some centres not stated),·,·,i,0.99,·,96,·
O=C(NCc1ccccn1)C1CC(c2ccc(F)cc2)=NO1 (configuration not stated),·,·,i,1.1,-2.0,105,-6
Cc1ccc(C)c(-c2nn(-c3cc(N4CCN(CCO)CC4)ccc3[N+](=O)[O-])c(=O)c3ccccc23)c1,-22,82,i,0.94,1.3,102,1
O=C(c1ccco1)N1CCN(Cc2cn[nH]c2-c2ccc(F)cc2F)CC1,·,·,i,0.95,·,108,-3
CSc1cccc(NC(=O)C2CCN(S(C)(=O)=O)CC2)c1,-19,161,i,1.1,-2.0,90,-9
CCOc1ccccc1C(=O)NC(C)c1ccc2c(c1)OCO2 (configuration not stated),49,116,i,0.95,1.6,102,-6
Cc1c(Cc2ccccc2)c(=O)oc2c(C)c(OCC(=O)Nc3ccc(C#N)cc3)ccc12,·,·,i,0.92,-1.1,107,8
CCc1ccc(NC(=S)NC(=O)CC(C)C)cc1,-21,182,i,0.98,0.8,118,-4
O=C(OCCOc1ccc(Br)cc1)c1cnccn1,21,117,i,1.1,-1.0,101,-1
O=C(CN1C(=O)CSc2ccccc21)Nc1ccc2c(c1)OCCO2,0,128,i,0.99,-1.1,88,-5
COc1ccc(Cc2nnc(N)s2)cc1,-29,71,i,0.88,-1.4,111,-12
COc1ccc(C2=CC(c3ccc(OC)c(OC)c3)NC(=S)N2)cc1 (configuration not stated),18,47,i,1,-1.8,102,-7
CCOc1cccc(/C(O)=C2/C(=O)C(=O)N(Cc3cccnc3)C2c2ccco2)c1 (configuration not stated),-21,103,i,0.81,-3.9,100,-16
COCCNC(=O)CN(Cc1cccs1)C(=O)CCC(=O)Nc1nccs1,38,118,i,0.97,·,90,3
COc1ccc(CNC(=O)c2cnn3c(C(F)F)cc(C)nc23)cc1OC,·,·,i,0.88,0.0,105,1
COc1cccc(/C=N/n2nnnc2N)c1OCc1ccccc1Cl,59,128,i,0.97,-1.0,98,-5
CCOC(=O)C1=C(C)OC(N)=C(C#N)C1c1cncc(-c2ccc(F)cc2)c1 (configuration not stated),-22,97,i,1,0.1,97,-8
COc1ccc(C(=O)NNC(=O)Cn2nnc(-c3ccc(OC)c(OC)c3)n2)cc1,·,·,i,0.63,·,104,2
O=C(N/N=C/c1ccc2nccnc2c1)c1ccc(Br)cc1,·,·,i,0.91,·,100,·
Cc1c(C(=O)N2CCOCC2)sc2ncn(CC(=O)N3CCC(C)CC3)c(=O)c12,-9,93,i,1.1,-1.6,103,-5
O=C(CCc1ccccc1)NCCSCc1c(F)cccc1Cl,·,·,i,1.4,-0.6,104,-12
Cc1ccc(C)c(NC(=O)COc2cccc3c2CCN(Cc2ccccc2C)C3=O)c1,·,·,i,0.85,-0.7,99,1
O=C(CSc1nccc(-c2cccs2)n1)Nc1ccc(Cl)cc1,·,·,i,1,·,100,·
CC1CCCCC1N1CN=C(Nc2nc3ccccc3s2)NC1 (configuration not stated),50,81,i,1,-1.9,174,15
